# Compound activity from PubChem.
# FGF22 binding – binders of recombinant human FGF22 by thermal shift; calls only at 9.99 µM; 1.5% of 340,000 active; Q9HCT0; SYPRO orange fluorescence; percent of sucrose octasulfate shift, DMSO zero;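 active = melting point raised past a set limit in the mean and every replicate; three in four hits are not shown here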
# Target sequence (Q9HCT0 whole entry, looked up): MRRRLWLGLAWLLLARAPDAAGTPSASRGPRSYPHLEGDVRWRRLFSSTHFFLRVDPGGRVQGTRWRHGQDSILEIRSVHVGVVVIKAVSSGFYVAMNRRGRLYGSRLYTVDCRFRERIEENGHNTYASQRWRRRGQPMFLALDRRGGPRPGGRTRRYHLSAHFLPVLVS
# AF4-AF9 inh – MLL-AF4/AF9 protein interaction inhibition. AlphaScreen, biotin-AF4 peptide binding to FLAG-AF9. P42568. inhibition, % at 10 µM. 0.47% of 350,000 active;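 active = every replicate reaching a set inhibition limit, whatever the replicate mean, cut at about 25% in these data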;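 also: 0% = plate neutral control median and 100% = total signal loss; the record names both 10 and 1 µM as test concentration; the first replicate is given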
# Target sequence (P42568 whole entry, looked up): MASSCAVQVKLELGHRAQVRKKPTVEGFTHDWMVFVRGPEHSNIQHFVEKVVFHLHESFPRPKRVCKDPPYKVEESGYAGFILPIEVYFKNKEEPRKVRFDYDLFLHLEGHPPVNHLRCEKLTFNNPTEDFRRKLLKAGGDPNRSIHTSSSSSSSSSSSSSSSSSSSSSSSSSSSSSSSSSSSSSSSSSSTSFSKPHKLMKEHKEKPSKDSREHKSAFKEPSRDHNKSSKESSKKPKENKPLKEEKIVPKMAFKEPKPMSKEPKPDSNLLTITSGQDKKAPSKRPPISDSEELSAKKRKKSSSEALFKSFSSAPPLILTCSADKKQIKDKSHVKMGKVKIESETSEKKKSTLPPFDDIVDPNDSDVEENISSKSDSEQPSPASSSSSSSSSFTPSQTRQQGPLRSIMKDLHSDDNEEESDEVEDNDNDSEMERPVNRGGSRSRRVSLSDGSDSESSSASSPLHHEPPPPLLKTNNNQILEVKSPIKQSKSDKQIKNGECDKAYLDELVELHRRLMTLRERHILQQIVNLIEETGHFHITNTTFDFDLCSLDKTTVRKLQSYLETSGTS
# Ecoli rRNA inh – inhibitors of bacterial rRNA selective over humanized ribosomes. E. coli WT GFP vs humanized-ribosome RFP mutants, fluorescence, 24 h; hits give low values; DMSO median 0, no signal -100. GFP signal change (wild-type ribosome), % (no concentration beside the values). 1.6% of 350,000 active. AID 720706;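 active = significant combined selectivity score with lowered wild-type GFP, culture density cut under 30%, mutant RFP and density less affected; inactive = any of these conditions unmet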; also: one replicate is shown; some compounds called inactive have numbers as strong as hits
# Ecoli rRNA inh OD600 – also measured in Ecoli rRNA inh; calls as there; OD600 change, %; measured here: OD600 growth;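 optical density of the mix in the first replicate; 0 = DMSO median and -100 = no signal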
# Ecoli rRNA inh RFP – also measured in Ecoli rRNA inh; calls as there; RFP signal change, %; measured here: RFP humanized mutant strains;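 first replicate; 0 = DMSO median and -100 = no signal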
# Active calls of the source: *; i = inactive; & = joins results of further samples. These rows are one share of the data (hit frequency here may not be typical).
# Value order: FGF22 binding	AF4-AF9 inh	Ecoli rRNA inh	Ecoli rRNA inh OD600	Ecoli rRNA inh RFP
- COc1cccc(-c2ccc3c(c2)[C@H]2[C@H](CCN2S(=O)(=O)c2ccc(F)cc2)[C@H](CO)N3C)c1
  i	0.4	5	22	5.5
- COCC(=O)N1C[C@H](C)[C@@H](OC)CN(C)C(=O)c2cc(NC(=O)c3cc(C)on3)ccc2OC[C@@H]1C
  i	-2.7	-8	1	-1.2
- COCCNC(=O)C1(C)CCCN(Cc2ccc(Oc3ccccc3)cc2)C1 (centres undefined)
  i	-0.7	13	4	-1.3
- O=C1NC(Cc2ccc(O)cc2)c2nc3cc(Cl)ccc3c(=O)n2-c2cc3ccccc3cc21 (centres undefined)
  i	4.1	-1	-1	3.2
- COCC(=O)N(C)C[C@H]1Oc2cc(C3=CCCC3)ccc2S(=O)(=O)N([C@H](C)CO)C[C@@H]1C
  i	-2.2	-4	-11	-2.1
- CN1C(=O)c2cc(NC(=O)c3ccc4c(c3)OCO4)ccc2OC[C@@H]2O[C@H](CC(=O)O)CC[C@@H]21
  i	-2.0	-1	-5	-2.7
- CCc1nc2ccc(C(=O)NCCCn3ccnc3)cn2c1N(C)C(=O)COc1ccccc1
  i	0.4	6	15	-2.8
- N#Cc1ccc(-c2ccc([C@H]3[C@H](CO)N4C(=O)CNC[C@@H]34)cc2)cc1
  i	-1.1	1	15	-1.7
- CC(C)c1cn(CC[C@@H]2CC[C@H](NS(=O)(=O)c3ccc(F)cc3)[C@@H](CO)O2)nn1
  i	-0.4&-0.9	-1&6	-3&13	-0.5&2.6
- C[C@H](CO)N1C[C@H](C)[C@H](CN(C)S(=O)(=O)c2cccs2)Oc2ccc(NC(=O)c3ccncc3)cc2CC1=O
  i	-0.5	-1	4	-1.9
- CO[C@H]1CN(C)C(=O)c2ccc(NS(=O)(=O)CC(F)(F)F)cc2OC[C@H](C)N(C)C[C@@H]1C
  i	-2.2	-2	2	0.9
- CO[C@@H]1CC[C@@H]2CCN(C)C(=O)C[C@H](c3ccccc3)CN(C)C(=O)c3cccc(C#N)c3OC[C@@H]1O2
  i	2.6	-1	-6	0.0
- COc1ccc(CN(C)C[C@H]2Oc3ccc(NS(=O)(=O)c4ccc(Cl)cc4)cc3C(=O)N([C@@H](C)CO)C[C@@H]2C)cc1
  i	-6.0	-2	2	-1.2
- O=C(c1ccc(F)cc1)N1CC2(C1)[C@H](c1ccccc1)[C@@H](CO)N2Cc1ccccn1
  i	-3.1	2	8	-0.7
- CCNC(=O)Nc1ccc2c(c1)C(=O)N(C)[C@@H]1CC[C@H](CC(=O)NCC3CCCCC3)O[C@@H]1CO2
  i	0.2	-2	-5	-1.0

# One compound at a time (already shown). Order of screens: FGF22 binding	AF4-AF9 inh	Ecoli rRNA inh	Ecoli rRNA inh OD600	Ecoli rRNA inh RFP
# COCC(=O)N(C)C[C@H]1Oc2cc(C3=CCCC3)ccc2S(=O)(=O)N([C@H](C)CO)C[C@@H]1C is listed as i	-2.2	-4	-11	-2.1
# CN1C(=O)c2cc(NC(=O)c3ccc4c(c3)OCO4)ccc2OC[C@@H]2O[C@H](CC(=O)O)CC[C@@H]21 is listed as i	-2.0	-1	-5	-2.7

# New compounds follow
# Value order: FGF22 binding	AF4-AF9 inh	Ecoli rRNA inh	Ecoli rRNA inh OD600	Ecoli rRNA inh RFP
- N#C[C@H]1[C@H](c2ccc(-c3ccccc3)cc2)[C@H](CO)N1C(=O)Cc1ccncc1
  i	0.7	-7	-3	0.8
- COc1ccc2c(c1)c(=Cc1ccc(N(C)C)cc1)c1cc(-c3ccccc3)[n+](C)n12
  i	68*	-49	-70	45
- CCOC(=O)[C@]12CCCC=C1N(Cc1ccc3c(c1)OCO3)C(=O)[C@H](CC(=O)NCC13CC4CC(CC(C4)C1)C3)C2
  i	1.6	13	25	1.7
- COc1ccc2c3c([nH]c2c1)[C@H](CO)N(C(=O)NC(C)C)CC31CCN(Cc2ccc(F)cc2)CC1
  i	16	0	-7	-1.7
- Nc1[nH]c(C(=O)c2ccccc2)c(-c2ccccc2Br)c1C(=O)NCCc1c[nH]c2ccccc12
  i	0.9	-11	-51	28
- Cc1ccc(S(=O)(=O)Nc2ccc3c(c2)C(=O)N([C@H](C)CO)C[C@@H](C)[C@H](CN(C)Cc2ccc(Cl)c(Cl)c2)O3)cc1
  i	3.1	-1	-2	0.9
- Nc1nc(N)c2cc(S(=O)(=O)c3ccc4ccccc4c3)ccc2n1
  i	-0.5	-44	-64	-17
- CNc1cnc(-c2cccc(C(=O)N3CCOCC3)c2)cn1
  i	-0.4	12	12	-0.5
- C[C@H]1CN([C@@H](C)CO)C(=O)c2cc(N(C)C)ccc2O[C@H]1CN(C)Cc1ccccc1
  i	-0.1	5	2	-0.6
- CCOC(=O)C1(C)CCCCCN1C(=O)c1ccc(C(F)(F)F)nc1C (centres undefined)
  i	-0.8	6	11	-0.9
- Cc1csc(SCC(=O)Nc2ccc(C)c(S(=O)(=O)N(C)C)c2)n1
  i	1.9	-3	-11	-2.2
- COc1ccc(-n2c(=O)c(CCC(=O)N3CCN(c4cccc(OC)c4)CC3)nc3ccccc32)cc1
  i	3.7	3	7	-3.8
- CC=Cc1ccc2n(c1=O)C[C@@H]1[C@@H](CO)[C@H](C(=O)NCC3CC3)[C@H]2N1CCC(F)(F)F (mixture of isomers)
  i	-0.9	1	-5	-2.1
- O=S(=O)(NN=Cc1cccc(Cl)c1)c1ccccc1
  i	-1.8	0	-6	2.6
- CN1C(=O)C(c2cn(C)c3ccccc23)(c2cn(C)c3ccccc23)c2cc(Br)ccc21
  i	-2.5	8	14	-1.4
- C[C@H]1CCCCO[C@@H](CN(C)S(=O)(=O)c2ccccc2)[C@@H](C)CN([C@@H](C)CO)C(=O)c2cc(NC(=O)CCC(F)(F)F)ccc2O1
  i	0.2	0	-3	0.3
- CCCNC(=O)N(C)C[C@@H]1Oc2cc(C#CCOC)ccc2S(=O)(=O)N([C@@H](C)CO)C[C@@H]1C
  i	-3.1	1	-3	0.0
- C[C@H](CO)N1C[C@H](C)[C@H](CN(C)Cc2ccc(C(=O)O)cc2)Oc2c(NC(=O)c3ccc(-c4nccs4)cc3)cccc2C1=O
  i	-4.8	2	0	-4.6
- C[C@H](CO)N1C[C@H](C)[C@@H](CN(C)Cc2ccc3c(c2)OCCO3)OCc2cnnn2CCCC1=O
  i	0.9&1.5	9&-1	19&5	-3.1&-0.7
- O=C(Nc1ccc2c(c1)OCO2)N[C@@H]1CC[C@H](CCNC(=O)C2CCCCC2)O[C@H]1CO
  i	1.1	3	2	-0.3
- COc1ccccc1-c1ccc2n(c1=O)C[C@H]1[C@H](CO)[C@@H](C(=O)NCCCN(C)C)N(C(C)=O)[C@@H]21
  i	-1.7	3	1	-0.1
- C[C@@H]1CN([C@@H](C)CO)C(=O)c2cc(NC(=O)Nc3ccc4c(c3)OCO4)ccc2O[C@@H]1CN(C)S(=O)(=O)c1ccc(Cl)cc1
  i	7.0	2	-19	-5.2
- CCCCCNC(=O)C(c1ccncc1)n1c(=O)c(-c2cc3ccccc3[nH]2)nc2ccccc21 (centres undefined)
  i	-35	-45	-72	-2.3
- C[C@@H]1CN([C@H](C)CO)C(=O)Cc2cc(NC(=O)Nc3ccccc3)ccc2O[C@H]1CN(C)S(=O)(=O)c1cn(C)cn1
  i	-1.6	2	4	-1.2
- COC(=O)[C@@]12C[C@@H](CC(=O)NCc3cccs3)C(=O)N(Cc3ccccc3)C1=CCC(C)(C)C2
  i	3.3	-1	-19	15
- C[C@@H]1CN([C@H](C)CO)C(=O)c2cc(NC(=O)Nc3ccc(C(F)(F)F)cc3)ccc2O[C@@H](C)CCCCO[C@H]1CN(C)C(=O)c1ccccc1
  i	-2.2	-4	2	-0.8
- COc1ccc(-c2cnc3c(c2)C(=O)N([C@H](C)CO)C[C@@H](C)[C@@H](CN(C)Cc2ccc(C(=O)O)cc2)O3)cc1
  i	-0.9	-3	-17	-2.7
- C[C@@H]1CN([C@H](C)CO)C(=O)Cc2cc(NC(=O)C3CC3)ccc2O[C@@H]1CN(C)C(=O)Nc1ccc(C(F)(F)F)cc1
  i	-1.0	0	-2	-2.6
- C[C@H](CO)N1C[C@H](C)[C@H](CN(C)Cc2ccncc2)Oc2ncc(/C=C/c3ccccc3)cc2C1=O
  i	4.7&4.9	-8	-5	5.2
- C[C@@H]1CN([C@@H](C)CO)C(=O)c2cc(NC(=O)c3ccncc3)ccc2O[C@H]1CN(C)S(C)(=O)=O
  i	-1.1	4	9	0.7
- C[C@@H]1CN([C@H](C)CO)C(=O)c2cc(-c3ccccc3)cnc2O[C@@H]1CN(C)C(=O)Cc1ccccn1
  i	1.4	3	9	-0.3
- NC(Cc1ccc(F)cc1)c1csc(Nc2nncc3ccccc23)n1 (centres undefined)
  i	9.6	-63	-80	-20
- CN(C)C(=O)c1ccc(-c2ccccc2[C@@H]2[C@H](C#N)N(C(=O)C3CCC3)[C@H]2CO)cc1
  i	-0.8	-1	-8	-1.4
- C[C@H]1CN([C@@H](C)CO)C(=O)c2cccc(NS(=O)(=O)c3cn(C)cn3)c2O[C@@H]1CN(C)S(=O)(=O)c1cccs1
  i	-3.8	-3	-2	2.6
- COc1ccc(CN(C)C[C@@H]2Oc3ccc(NC(=O)Nc4ccc(OC)cc4)cc3C(=O)N([C@@H](C)CO)C[C@H]2C)cc1
  i	4.9	0	-3	-1.5
- O=C(N[C@@H]1CC[C@@H](CCNC(=O)C2CCCCC2)O[C@@H]1CO)c1ccccn1
  i	2.3	-4	-4	-0.9
- C[C@@H]1CN([C@H](C)CO)C(=O)c2cc(NC(=O)C3CC3)ccc2O[C@H]1CN(C)C(=O)NC1CCCCC1
  i	-4.2	4	7	-2.8
- O=C1NC[C@H](Cc2ccccc2)N(C[C@H]2CCCN2C[C@H](Cc2ccccc2)N2C[C@H](Cc3ccccc3)N(CC3CCCCCC3)C(=O)C2=O)C1=O
  i	2.1	-11	-15	5.7
- CCCNC(=O)C[C@H]1CC[C@H]2[C@@H](COC[C@@H](O)CN2C(=O)c2ccccn2)O1
  i	0.7	4	3	-1.8
- C[C@H](CO)N1C[C@H](C)[C@@H](CN(C)C)Oc2ccc(NS(C)(=O)=O)cc2CC1=O
  i	-3.3	1	17	0.5
- Cc1cc(C)c(OCC(=O)OCC(=O)NCc2ccco2)c(C)c1
  i	2.6	10	9	0.3
- Cc1csc(SCC(=O)Nc2ccc(CC#N)cc2)n1
  i	-2.0	4	9	2.4
- Cc1noc(C)c1NC(=O)N[C@@H]1CC[C@@H](CC(=O)Nc2ccccc2)O[C@@H]1CO
  i	-2.1	2	2	-1.1
- C[C@H](NC(=O)C[C@@H]1CC[C@@H](NC(=O)c2cccnc2)[C@@H](CO)O1)c1ccccc1
  i	-1.3	-1	0	-1.2
- CC(C)NC(=O)N[C@@H]1CC[C@H](CCNC(=O)C2CCOCC2)O[C@@H]1CO
  i	-0.2	3	3	1.0
- O=C(C[C@@H]1CC[C@@H]2[C@H](COC[C@H](O)CN2C(=O)Nc2cccc(Cl)c2)O1)NCCCN1CCOCC1
  i	-0.3	-59	-78	-17
- COc1ccc(S(=O)(=O)N(C)C[C@H]2Oc3ccc(N(C)C)cc3CC(=O)N([C@H](C)CO)C[C@@H]2C)cc1
  i	11	-1	1	6.9
- C[C@@H]1CN([C@H](C)CO)C(=O)c2cc(C#CC3CCCC3)cnc2O[C@H]1CN(C)C(=O)C1CC1
  i	-1.1	-4	-3	2.1
- CO[C@H]1CN(C)C(=O)c2cc(NC(=O)C3CCC3)ccc2OC[C@H](C)N(Cc2cccnc2)C[C@@H]1C
  i	-2.8	5	10	-1.8
- C[C@H](CO)N1C[C@H](C)[C@@H](CN(C)CC2CCOCC2)Oc2ncc(C#CCc3ccccc3)cc2C1=O
  i	-1.6	4	5	-0.6
- CO[C@@H]1CN(C)C(=O)c2ccc(NS(C)(=O)=O)cc2OC[C@H](C)NC[C@@H]1C
  i	-2.5	3	8	-2.2
- C/C=C/c1ccc2c(c1)O[C@H](CN(C)C(=O)Cc1ccccn1)[C@@H](C)CN([C@@H](C)CO)S2(=O)=O
  i	-2.6	-2	-1	-4.1
- C[C@@H]1CCCCO[C@H](CN(C)S(=O)(=O)c2cccs2)[C@@H](C)CN([C@@H](C)CO)C(=O)c2cc(NC(=O)C3CCCCC3)ccc2O1
  i	-0.4	-2	-2	-1.0
- COc1ccccc1-c1ccc([C@H]2[C@@H](C#N)N(C(=O)CN(C)C)[C@@H]2CO)cc1
  i	-0.5	2	21	-1.7

# Looked up above.
# CO[C@H]1CN(C)C(=O)c2cc(NC(=O)C3CCC3)ccc2OC[C@H](C)N(Cc2cccnc2)C[C@@H]1C in Ecoli rRNA inh OD600 → 10
# C[C@@H]1CN([C@@H](C)CO)C(=O)c2cc(NC(=O)c3ccncc3)ccc2O[C@H]1CN(C)S(C)(=O)=O in Ecoli rRNA inh RFP → 0.7
# CO[C@@H]1CN(C)C(=O)c2ccc(NS(C)(=O)=O)cc2OC[C@H](C)NC[C@@H]1C in AF4-AF9 inh → -2.5
# C[C@H](NC(=O)C[C@@H]1CC[C@@H](NC(=O)c2cccnc2)[C@@H](CO)O1)c1ccccc1 in Ecoli rRNA inh OD600 → 0
# CN(C)C(=O)c1ccc(-c2ccccc2[C@@H]2[C@H](C#N)N(C(=O)C3CCC3)[C@H]2CO)cc1 in AF4-AF9 inh → -0.8
